# RE007 growth inh: qHTS Assay for Inhibitors of the HIV-1 protein Vpr. S. pombe RE007 Vpr strain, BacTiter-Glo ATP luminescence, 24 h; control for the full effect not named in the record. Potency, µM (series often up to 92.2 µM), for the others: at the top dose activity change, negative = less growth. AID 651644, 2012. 0.21% of 360,000 active; active = well fitted falling curve with a large enough effect; inconclusive = small, poorly fitted or top-dose-only effect; inactive = no such curve, though single readings can be large or run the other way;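 further: nearly all actives have a fitted effect of over 50% in size; the assay follows cell death caused by Vpr and the record does not say whether a fall means rescue or toxicity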
#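 Fission yeast RE007 carrying one integrated HIV-1 vpr copy, seeded at OD 0.01 in PMG+AL medium with 23 nL pinned compound. Grown 24 h at 30 degrees; viability read by BacTiter-Glo luminescence after 5 min.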
# 2A StopGo: High Throughput Screening for Foot and Mouth Disease Virus Antivirals; human cells with a luciferase reporter of 2A StopGo recoding; control for the full effect not named in the record; Potency, µM (top dose mostly 57.9 µM), for inactives: top-dose signal change, negative = less light; 1.2% of 410,000 active; AID 1159524, 2015; active = well fitted falling curve with a large enough effect; inconclusive = small, poorly fitted or top-dose-only effect; inactive = no such curve, though single readings can be large or run the other way; tested in HEK293T cells; further: nearly all actives have a fitted effect of over 45% in size; luciferase light after 4 h
# Numbers without * were called inactive; ? = inconclusive; [ ] = dose if it differs, or a comment. On the % scale 0 is the no-effect control and ±100 the full control effect; potency means the concentration at half of the fitted maximal effect. This is a subset, so the mix of outcomes need not match the whole.
# The opening 4 compounds, ahead of the listing:
SMILES,RE007 growth inh,2A StopGo
O=C(Nc1cccc(Cl)c1Cl)c1csc([C@@H]2O[C@H](CO)[C@H](O)[C@H](O)[C@H]2O)n1,6%,-2%
Cn1nc(C(=O)OCC(=O)NCc2ccc(Cl)cc2Cl)c2ccccc2c1=O,-2%,0%
O=C(C1=NOC2(C1)C(=O)Nc1ccccc12)N1CCOCC1 (configuration not stated),48%,-23%
Cc1ccccc1CN1C(=O)CSCC1(C)C(=O)NCc1ccccc1 (configuration not stated),2%,-25%

# Results (from the top)
SMILES,RE007 growth inh,2A StopGo
O=C(Nc1cccc(Cl)c1Cl)c1csc([C@@H]2O[C@H](CO)[C@H](O)[C@H](O)[C@H]2O)n1,6%,-2%
Cn1nc(C(=O)OCC(=O)NCc2ccc(Cl)cc2Cl)c2ccccc2c1=O,-2%,0%
O=C(C1=NOC2(C1)C(=O)Nc1ccccc12)N1CCOCC1 (configuration not stated),48%,-23%
Cc1ccccc1CN1C(=O)CSCC1(C)C(=O)NCc1ccccc1 (configuration not stated),2%,-25%
CCOc1ccc(CCN2C(=S)N([C@@H](Cc3ccc(O)cc3)CN3CCCC3CN3C(=S)NC[C@@H]3Cc3ccc(O)cc3)C[C@@H]2CC(C)C)cc1 (some centres not stated),-17%,?
Cc1ccccc1C(=O)Nc1ccc(S(=O)(=O)NCC2CCCO2)cc1 (configuration not stated),8%,17%
CCc1nc2c(OCC(=O)C(C)(C)C)cccn2c1N(C)C(=O)COc1ccccc1,3%,-19%
c1cc(-c2ccc(N3CCOCC3)cc2)n2cnnc2c1,15%,24%
Cc1ccc(Cl)cc1-c1cc(C(=O)Nc2ccc(F)cc2)[nH]n1,?,?
COc1ncc(-c2cccc3nccn23)c(OC)n1,0%,-10%
O=C(CSc1ccc(Cl)cc1)Nc1ccccc1,6%,0%
CN1C(=O)N(CC(=O)Nc2ccc3c(c2)OCO3)C(=O)C12CCCCC2,9%,53%[activator]
CCC(=O)Nc1ccc(S(=O)(=O)NC[C@H]2O[C@@H](n3cc(C)c(=O)[nH]c3=O)C[C@@H]2O)cc1,-8%,-2%
Cc1cccc(C)c1-n1nnnc1C1(C)CCC(=O)N1CC1CCCCC1 (configuration not stated),-17%,8%
COC(=O)C1=C(c2ccc(S(C)(=O)=O)cc2)C[C@@H]2CC[C@H]1N2C(=O)N1CCCC1,8%,-12%
COc1cc(F)ccc1-c1csc(C(NC(C)=O)c2ccc(F)c(F)c2)n1 (configuration not stated),5%,-15%
OC[C@@H]1CN(Cc2ccccc2)C[C@H](n2cnc3c(N4CCCC4)ncnc32)O1,-9%,6%
CC(C)C[C@@H](COCc1ccc(F)cc1)N1CCN(C(=O)c2cccc(C(F)(F)F)c2)CCC1=O,-3%,-21%
COCCCN1C(=O)C(CC(=O)NC2CCCCC2)CC(C(=O)N(C(C)C)C(C)C)=C1C (configuration not stated),2%,0%
CC1(C)Oc2cc3oc(C(=O)O)cc(=O)c3cc2-c2ccccc21,-15%,-1%
COc1ccc(NCC(=O)Nc2c(C)cccc2C)cc1S(=O)(=O)N1CCOCC1,-2%,-14%
CC1(C(=O)NCc2ccccc2Br)CCN1Cc1c(F)cccc1F (configuration not stated),-9%[18.4 µM],-17%
Cc1nc(C)c(C(=O)OCC(=O)Nc2ccc(C)c(C)c2)s1,-13%,?
O=C(Nc1ccc2c(c1)OCCO2)C(c1ccnc2ccccc12)n1c(=O)c(-c2ccco2)nc2ccccc21 (configuration not stated),6%,28%
CN/C(=C/[N+](=O)[O-])NCCSCc1csc(CN(C)C)n1,-11%[18.4 µM],-18%
O=C(c1ccc(C(F)(F)F)cc1)N(CCCn1ccnc1)C(c1ccccn1)c1nc2ccccc2[nH]1 (configuration not stated),-18%,21%
CC1(C(=O)NCc2ccccc2Br)CCN1Cc1csc2ccccc12 (configuration not stated),-11%[18.4 µM],-27%
CCCNC(=O)C1(C)CCN(CCS(=O)(=O)c2ccc(C)cc2)C1 (configuration not stated),-5%[18.4 µM],-10%
CC1(C)Cc2c(cnn2-c2ccc(F)cc2)C(NC(=O)C2=CC(=O)CC(C)(C)O2)C1 (configuration not stated),-1%,3%
O=C(NCc1ccccc1)C(c1ccc(C(F)(F)F)cc1)n1c(=O)c(-c2ccco2)nc2ccccc21 (configuration not stated),9%,-5%
COc1cccc(CN(C)CCCn2cnc3c(OC)ncnc32)c1,?,-3%
COc1ccc(-c2cc3nc(NCCOc4ccccc4)ccn3n2)cc1,0%[18.4 µM],12%
CCc1cnc(Nc2nc(C(N)Cc3ccc(Cl)cc3)cs2)nc1 (configuration not stated),0%,-7%
CC(C)N(C)c1ncnc2c1ncn2[C@H]1CN(C2CCCC2)C[C@@H](CO)O1,-16%[18.4 µM],-20%
COc1ccc(CN2CCC(C(=O)NC(c3ccc4c(c3)OCO4)c3ccccn3)CC2)cc1 (configuration not stated),-6%,-14%
CN(Cc1ccccc1)C(=O)c1cccc(NC(=O)Cc2ccc(NC(=O)C3CCN(C(=O)C4CCCCC4)CC3)cc2)c1,-4%,?

# Three records picked at random from the list so far:
SMILES,RE007 growth inh,2A StopGo
CN(Cc1ccccc1)C(=O)c1cccc(NC(=O)Cc2ccc(NC(=O)C3CCN(C(=O)C4CCCCC4)CC3)cc2)c1,-4%,?
O=C(NCc1ccccc1)C(c1ccc(C(F)(F)F)cc1)n1c(=O)c(-c2ccco2)nc2ccccc21 (configuration not stated),9%,-5%
CCc1cnc(Nc2nc(C(N)Cc3ccc(Cl)cc3)cs2)nc1 (configuration not stated),0%,-7%

# Part of the list above in order of number of heavy atoms, high to low.
SMILES,RE007 growth inh,2A StopGo
CN(Cc1ccccc1)C(=O)c1cccc(NC(=O)Cc2ccc(NC(=O)C3CCN(C(=O)C4CCCCC4)CC3)cc2)c1,-4%,?
CCc1nc2c(OCC(=O)C(C)(C)C)cccn2c1N(C)C(=O)COc1ccccc1,3%,-19%
Cn1nc(C(=O)OCC(=O)NCc2ccc(Cl)cc2Cl)c2ccccc2c1=O,-2%,0%

# More entries
SMILES,RE007 growth inh,2A StopGo
CC(C)c1cc(C(C)C)c(S(=O)(=O)N2c3ccccc3[C@@]3(Br)C[C@H]4C(=O)N[C@@H](Cc5ccccc5)C(=O)N4[C@@H]23)c(C(C)C)c1,-5%,?
O=C(NCc1cccs1)C1C(=O)Nc2ccccc2C(=O)N1C1CCCC1 (configuration not stated),-1%,-1%
O=C1Cn2nnc(-c3ccccc3)c2C2c3ccccc3CCN12 (configuration not stated),3%,-10%
CCc1nc2ccc(C(=O)NCCc3c[nH]c4ccccc34)cn2c1N(C)CCCc1ccccc1,-7%,-28%
COC(=O)Cc1ccccc1NS(=O)(=O)c1ccc(C)cc1,7%,-3%
CN(C)CCCNc1nc2cc(-c3ccc(F)cc3)sc2c(=O)n1C,?,-3%
COC(=O)c1ccc2nc(-c3ccc(Cl)cc3)c(Cc3ccsc3)n2c1,-10%,?
C=C[C@@]1(C)CC(=O)[C@]2(O)[C@@]3(C)[C@@H](O)CCC(C)(C)[C@@H]3[C@H](OC(C)=O)[C@H](O)[C@@]2(C)O1,17%,-21%
COc1ccc(Cl)cc1-c1cc(C(=O)Nc2ccc(C(C)(C)C)cc2)[nH]n1,-2%,-20%
CC(CC(=O)Nc1ccc2c(c1)c(=O)n(C)n2Cc1ccc(Cl)cc1)C(F)(F)F (configuration not stated),3%,-14%
COc1ccc(CN2Cc3cc(-c4ccc(OC)cc4)ccc3-n3nncc3C2)cc1,-8%,1%
CCCNC(=O)C1(C)CCCN(C(=O)c2ccc(F)cc2Cl)C1 (configuration not stated),6%[18.4 µM],-19%
COC(=O)C[C@H]1C[C@@H]2c3cc(NS(=O)(=O)c4ccc(OC)cc4)ccc3O[C@@H]2[C@H](CO)O1,18%,-15%
O=C1OCCC1=CN1CCCCC1,-8%,-13%
O=C(NCCC(F)(F)F)c1cccc2c(-c3ccc(F)c(F)c3)coc12,-17%,-10%
CCc1nc2c(OCCC3CCCCC3)cccn2c1N(C=O)Cc1ccc(OC)cc1,-9%[18.4 µM],-2%
O=C(Nc1cccc2ccccc12)NC1CC1,-17%,3%
O=C(c1[nH]c(C(F)(F)F)nc1-c1ccccc1)N1CCN(c2ncc(C(F)(F)F)cc2Cl)CC1,5%,-28%
CC1(C)N=C(N)N=C(N)N1c1cccc(CC(=O)Nc2ccccc2)c1,-25%,-1%
CCOC(=O)C1=C[C@@H](CC)N(S(=O)(=O)c2ccccc2)[C@H]1c1ccccc1,8%,-19%
CCOC(=O)[C@]12CCC=C1N(CCC1=CCCCC1)C(=O)[C@H](CC(=O)NCC1CCCCC1)C2,4%,15%
N#Cc1ccccc1C[C@H](N)C(=O)NC[C@H]1O[C@@H](n2cnc3c(N)ncnc32)[C@H](O)[C@@H]1O,-8%,-22%
COc1ccc(CN2C(=O)C(CC(=O)NC3CCCC3)CC(C(=O)N3CCOCC3)=C2C)cc1 (configuration not stated),-8%,-7%
O=C(CCc1ccccc1)Nc1sc2c(c1C(=O)O)CCCC2,-19%,-21%
COCCn1c(SCc2ccc(C)cc2)nc2c1c(=O)[nH]c(=O)n2C,3%,-16%
CC(N)c1csc(Nc2nncc3ccccc23)n1 (configuration not stated),7%[18.4 µM],16%
COc1ccc(NC(=O)c2c(C)noc2C)cc1S(=O)(=O)N1CCCCC1,5%,4%
COc1ccc(CN2C[C@@H](CO)O[C@@H](n3cnc4c(N5CCCC5)ncnc43)C2)cc1,-16%,-12%
COc1ccc(NC(=O)C2(C)Cc3c(-c4ccc(NC(C)=O)cc4)ccnc3O2)cc1OC (configuration not stated),3%[18.4 µM],-12%
CCCCNC(=O)C1c2ccccc2OCC(=O)N1Cc1ccco1 (configuration not stated),-4%,-9%
Cn1nnnc1SCCNC(=O)C1CCC(=O)N(Cc2cccc(C(F)(F)F)c2)C1 (configuration not stated),-7%,-13%
O=C(O)COc1ccc(NC(=O)c2ccc3c(c2)C(=O)N(CC2CCCO2)C3=O)cc1 (configuration not stated),-7%,0%
CN(C)C(=O)c1cccc(-c2cc(NC=O)c3ncc(-c4ccc(F)c(Cl)c4)n3c2)c1,-6%[18.4 µM],-15%
COc1cccc(CN2CCC2(C)C(=O)Nc2cccc3cccnc23)c1F (configuration not stated),-21%[18.4 µM],-22%
CCOC(=O)[C@]12CCCC=C1N(Cc1ccc3c(c1)OCO3)C(=O)[C@H](CC(=O)N1CCC(c3ccccc3)CC1)C2,12%,-15%
COc1cccc(-c2cnc(C(O)c3cccc(OC)c3)[nH]2)c1 (configuration not stated),-6%[18.4 µM],39%[activator]
COc1ccc(C(c2nnnn2-c2ccc3c(c2)OCCO3)N2CCC3(CC2)C(=O)NCN3c2ccccc2)cc1 (configuration not stated),-19%,7%
O=C1OCC/C1=C\NCCCCCCCCN/C=C1\CCOC1=O,-7%,0%
C[C@@H]1CN([C@@H](C)CO)C(=O)c2cc(NC(=O)C3CCCCC3)ccc2O[C@@H](C)CCCCO[C@@H]1CN(C)C(=O)CCCN(C)C,12%,-24%
CC(=O)NCCNc1nc2cc(-c3ccc(C)cc3)sc2c(=O)n1C,-3%,-25%
CS(=O)(=O)Cc1nc2ccccc2n1CC(=O)Nc1cccc(S(=O)(=O)N2CCCC2)c1,5%,10%
CC(C)C[C@@H]1COc2cccc(N3CCC[C@H]3CO)c2S(=O)(=O)N1,2%,-15%
COc1cccc(-c2cc(NC=O)c3ncc(-c4ccc(F)c(Cl)c4)n3c2)c1,7%,0%
O=C1C(N2CCOCC2)=Cc2cccc3cccc1c23,-11%,-14%
CC1(C)CC(=O)C=C(c2ccc3[nH]ccc3c2)C1,-2%,11%
CCOC(=O)c1cccc(C2=C(CNC(=O)c3ccncc3)[C@H]3CC[C@@H](C2)N3Cc2ccccc2)c1,?,-8%
CCN(CC(=O)Nc1ccccc1OC)C(=O)CN1C(=O)NC(C)(c2ccc3ccccc3c2)C1=O (configuration not stated),3%,-9%
COC(=O)C1=C(C)NC(=O)NC1c1ccc(OC)c(OC)c1 (configuration not stated),12%,-12%
OC(c1ccc(F)cc1)c1nc(-c2csc3ccccc23)cs1 (configuration not stated),?,26%
CCOC(=O)C1=CC[C@@H](c2ccccc2)N(S(=O)(=O)c2ccc(C)cc2)[C@H]1c1cccc(OC)c1,4%,-15%
Cc1ccc(S(=O)(=O)N2C[C@@]3(O)Cn4c(=O)ccc(=O)n4C[C@@]3(OC(=O)NCc3ccccc3F)C2)cc1,0%,1%
O=C1NC(=O)C2(CCCc3ccc([N+](=O)[O-])cc32)N1 (configuration not stated),0%,-7%
COCCN1C(=O)CCC1(C)c1nnnn1-c1ccc2ccccc2c1 (configuration not stated),7%,-8%
O=C(Nc1cccc(-c2cccc(Cl)c2)c1)C1CCN(Cc2nccs2)CC1,5%,?
COC(=O)C1=C[C@@H](C(=O)OC)[C@@H]2C3=C(C(=O)C2(C)C)[C@H](C)n2c(=O)n(-c4ccccc4)c(=O)n2[C@@H]3C1,5%,-10%
CC(O)(c1ccc(F)c(F)c1)c1nc(/C=C/c2ccc(C(F)(F)F)cc2)cs1 (configuration not stated),?,-17%
CCNC(=O)C1(C)CCCN(Cc2ccc(-c3ccccc3)o2)C1 (configuration not stated),-12%,-1%
CC(=O)Oc1ccc(Cn2c(C)c(C(=O)NCc3ccccc3C(F)(F)F)sc2=O)cc1,-17%[18.4 µM],-19%
COc1ccccc1C(=O)NC(=S)Nc1ccc(N2CCOCC2)cc1,19%,21%
O=C1CC(c2ccccc2)NC(=S)N1 (configuration not stated),4%,-6%
CNc1ccc2ncc(-c3cccc(C(=O)N(C)C)c3)n2n1,0%[18.4 µM],-4%
